Bioassay records as filed in PubChem BioAssay.
VDR inh – Inhibitors of the vitamin D receptor (VDR): qHTS; Vitamin D3 receptor (Homo sapiens), P11473; VDR-SRC2-3 peptide fluorescence polarization, 2 h; Potency, µM, inactives show max response, negative = inhibition, usual class: inhibitors; 400,000 tested, 0.93% active; active = well fitted inhibition curve with a large enough effect; inconclusive = small, poorly fitted or top-dose-only effect, or another doubt; inactive = no such curve, though single readings can be large or run the other way; also: series mostly up to about 120 µM
Target sequence (P11473 whole entry, looked up): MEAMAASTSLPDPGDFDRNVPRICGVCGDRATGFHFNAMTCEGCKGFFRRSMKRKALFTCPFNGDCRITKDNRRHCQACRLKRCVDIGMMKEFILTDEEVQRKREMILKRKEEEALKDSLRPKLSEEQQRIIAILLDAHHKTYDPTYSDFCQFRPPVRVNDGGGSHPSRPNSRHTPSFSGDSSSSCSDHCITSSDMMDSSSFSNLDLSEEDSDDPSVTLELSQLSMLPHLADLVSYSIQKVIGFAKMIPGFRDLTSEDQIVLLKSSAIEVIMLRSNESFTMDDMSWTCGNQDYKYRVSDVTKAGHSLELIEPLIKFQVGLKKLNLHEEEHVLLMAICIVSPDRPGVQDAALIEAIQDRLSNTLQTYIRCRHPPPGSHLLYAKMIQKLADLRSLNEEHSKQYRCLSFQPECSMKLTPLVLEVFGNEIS
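Two reagent solutions held at 4 deg C in the dark were dispensed, compounds pinned at 23 nl, and the mixture incubated 2 h at room temperature. Read-out: fluorescence polarization of VDR–SRC2-3 peptide binding.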
* = called active by the depositor; ? = inconclusive; & = joins results of further samples; [ ] = remark or other dose. % is scaled to controls: 0 for no effect and ±100 for the full control effect; potency is read from the fitted curve at half-maximal effect. The list is partial; rates above refer to the full screens.

Start of the data: the first 4 compounds (preview)
SMILES	VDR inh
O=C(c1ccccc1)C1CN(Cc2ccccc2)CCC1(O)c1ccccc1 (stereo unspecified)	-14%
COc1ccc2oc(C(=O)OCC(=O)N(C)CC(=O)Nc3ccc(F)cc3)c(C)c2c1	22%
CC(=O)Nc1ccc(NC(=O)C2CC(=O)N(c3ccc(Cl)cc3)C2)cc1 (stereo unspecified)	-1%
CCCN(CCC)C(=O)Cn1c(=O)n(-c2cccc(C(F)(F)F)c2)c(=O)c2c(C)c(C)sc21	-8%

The list itself, from the start:
SMILES	VDR inh
O=C(c1ccccc1)C1CN(Cc2ccccc2)CCC1(O)c1ccccc1 (stereo unspecified)	-14%
COc1ccc2oc(C(=O)OCC(=O)N(C)CC(=O)Nc3ccc(F)cc3)c(C)c2c1	22%
CC(=O)Nc1ccc(NC(=O)C2CC(=O)N(c3ccc(Cl)cc3)C2)cc1 (stereo unspecified)	-1%
CCCN(CCC)C(=O)Cn1c(=O)n(-c2cccc(C(F)(F)F)c2)c(=O)c2c(C)c(C)sc21	-8%
COC(=O)C(NS(=O)(=O)c1ccccc1Cl)c1ccccc1 (stereo unspecified)	-15%
CCc1ccc(NC(=O)C2CCN(S(=O)(=O)c3c(C)noc3/C=C/c3cccs3)CC2)cc1	-8%
O=C(O)c1ccc2c(c1)OCCCO2	7%
C(#Cc1ccccc1)C[N+]1(CC#Cc2cccc3ccccc23)CCOCC1	8%
COc1ccccc1-c1cc(C(F)(F)F)nc(S(=O)(=O)CCCC(=O)NCc2ccc(F)cc2)n1	?
CC[C@@]1(C(=O)OC)N[C@H](CN(C)S(=O)(=O)c2ccc(-c3ccccc3)cc2)[C@@H]2C(=O)N(C)C(=O)[C@@H]21	-10%
CCc1c(C)sc(NC(=O)c2cc(-c3ccco3)on2)c1C#N	?
CCOC(=O)c1ccc(N2C(=O)c3n[nH]c(-c4ccco4)c3C2c2ccc(F)cc2)cc1 (stereo unspecified)	-11%
Cc1ccc(Nc2cc(C)nc(N3CCOCC3)n2)c(C)c1	3%
CCC1(C)Cc2ccccc2-c2nc(NCCO)[nH]c(=O)c21 (stereo unspecified)	-2%
Cn1c(=O)n(CC(=O)N2CCOCC2)c2ccccc21	13%
O=C(Nc1ccc(Br)cc1F)c1cc(S(=O)(=O)NC2CCCCC2)ccc1F	0%
CC(=O)NC(c1ccc(C(C)C)cc1)c1ccc2cccnc2c1O (stereo unspecified)	-12%
CC(OC(=O)c1ccc2ccccc2n1)C(=O)c1ccccc1 (stereo unspecified)	1%
CCCNc1[nH]c(=O)n(C)c(=O)c1N=O	7%
COc1cccc(CNC(=O)C2CCN(S(=O)(=O)c3cccc4nonc34)CC2)c1	-1%
O=C(c1ccco1)N1CCN(Cc2nnnn2CC2CCCO2)CC1 (stereo unspecified)	?
CC1CC(C)CN(CC(O)COC2CC(C)CC(C)(C)C2)C1 (stereo unspecified)	-6%
O=C(CCc1ccccc1)N1CCN(C(=O)CCc2ccccc2)CC1	0%
CC(C)(C)OC(=O)N1CCC(c2c(C(=O)NCCN3CCC(Cc4ccccc4)CC3)cnn2-c2ccccc2)CC1	15%
CCOc1ccc(N/C=C/C(=O)c2ccc(OC)cc2)c([N+](=O)[O-])c1	-5%
O=C1N[C@@H](c2ccccc2)COC(=O)[C@@H](Cc2ccc(F)cc2)CC/C=C/C[C@H]1CC(=O)N(CCO)Cc1ccccc1	11%
C=CCSc1nnc(CCCCCN2C(=O)c3cccc4cccc(c34)C2=O)o1	-9%
Cc1ccc2c(c1)N(CC(=O)c1cccc(Cl)c1)C(=O)C(C)O2 (stereo unspecified)	6%
CCCCOP(=O)(c1ccc(N(C)C)cc1)C(O)c1ccc(C(C)C)cc1 (stereo unspecified)	7%
CCc1nc(SCC(=O)Nc2cc(C)on2)c2c(C)c(C)sc2n1	8%
Cc1ccccc1-n1nnnc1-c1ccccc1	14%
CCN(CC)S(=O)(=O)c1cccc(NC(=O)CCSc2ccc(Cl)cc2)c1	14%
COc1ccc(-c2c(-c3ccc(O)cc3O)n[nH]c2C)cc1OC	3%
C1CCN(CCCNC2C3CC4CC(C3)CC2C4)C1 (stereo unspecified)	-9%
Cc1cccc(C)c1NC(=S)N(CCCN1CCN(C)CC1)Cc1cccs1	-8%
C/C(=N\NC(=O)Cc1ccccc1)c1cccs1	10%
CN1CCN(C(=O)C23CCC(C)(C(=O)C2Br)C3(C)C)CC1 (stereo unspecified)	8%
CCOc1ccc(N(C)Cc2cc(=O)oc3ccc(OC)cc23)cc1	-2%
O=C(COc1ccc(Cl)cc1)Nc1ccc(C(=O)O)cc1NC(=O)COc1ccc(Cl)cc1	0%
COc1ccc2cc(C(c3nnnn3Cc3ccc(F)cc3)N3CCCCCC3)c(=O)[nH]c2c1 (stereo unspecified)	-21%

Some of the entries so far, as labelled records:
CCCCOP(=O)(c1ccc(N(C)C)cc1)C(O)c1ccc(C(C)C)cc1 (stereo unspecified)
  VDR inh: 7%
CCc1nc(SCC(=O)Nc2cc(C)on2)c2c(C)c(C)sc2n1
  VDR inh: 8%
Cc1ccccc1-n1nnnc1-c1ccccc1
  VDR inh: 14%

(next part)
SMILES	VDR inh
O=C(Nc1c(C(=O)N2CCN(c3ccccc3F)CC2)oc2ccccc12)c1cccc(F)c1	8%
Cc1cc(NC(=O)CSCC(=O)N(C)Cc2ccc(Cl)cc2Cl)no1	-5%
CCN1C(=O)[C@H]2[C@H]3CN=C(SCC4CC4)N3[C@@](CC)(C(=O)OC)[C@H]2C1=O	10%
Cc1cc(OCC(=O)Nc2ccc(S(=O)(=O)N3CCN(C)CC3)cc2)cc(C)c1Cl	13%
O=C(N/N=C/c1ccccc1)c1cc(=O)[nH]c2ccccc12	1%
CN1CCC(=NNC(=O)c2ccc(N(Cc3ccccc3Cl)S(C)(=O)=O)cc2)CC1	-18%
O=C(Cc1ccc([N+](=O)[O-])cc1)NCc1ccccn1	18%
Cc1cc(C)cc(C(=O)NC(CC(N)=O)c2ccc(NCC3CC3)c([N+](=O)[O-])c2)c1 (stereo unspecified)	2%
Cc1ccc(-c2nnn(CC(=O)N(c3cccc(F)c3)C(C(=O)NC3CCCC3)c3ccco3)n2)o1 (stereo unspecified)	3%
CCOC(=O)CN(C(=O)COc1nc(-c2ccccc2)cc(C)c1C#N)c1ccccc1	4%
Cc1cc(N2CCN(S(=O)(=O)c3ccccc3)CC2)nc2c(C)cccc12	4%
CCOc1ccc(CCNC(=O)C2CCCN(c3nn4c(=O)cc(C)nc4s3)C2)cc1OCC (stereo unspecified)	16%
CCC1CCCCN1c1nc(-c2cccc(OC)c2O)nc2ccccc12 (stereo unspecified)	-6%
Cc1cccc(OC(=O)c2cc(-c3ccc4c(c3)OCCO4)on2)c1	-2%
CCC(C(=O)NCCCN1CCN(C)CC1)n1nc(C)c2sc3ccccc3c2c1=O (stereo unspecified)	-2%
Cc1sc(N/N=C/c2cc([N+](=O)[O-])ccc2O)nc1-c1ccccc1	?
O=C(NC(Cc1ccccc1)C(=O)O)c1ccco1 (stereo unspecified)	7%
O=C(OCc1ccccc1)c1ccccc1	-13%&-8%&-3%
CCCSCCCNC(=O)c1ccc2c(c1)nc1n2CCCCC1	12%
COc1ccc(NC(=O)Cn2c(=O)n(CCC(=O)NCC3CCCO3)c(=O)c3cc(OC)c(OC)cc32)cc1 (stereo unspecified)	-13%&8%

Six records picked at random from those above, as already listed:
SMILES	VDR inh
O=C(NC(Cc1ccccc1)C(=O)O)c1ccco1 (stereo unspecified)	7%
Cc1cccc(OC(=O)c2cc(-c3ccc4c(c3)OCCO4)on2)c1	-2%
O=C(Nc1c(C(=O)N2CCN(c3ccccc3F)CC2)oc2ccccc12)c1cccc(F)c1	8%
CN1CCC(=NNC(=O)c2ccc(N(Cc3ccccc3Cl)S(C)(=O)=O)cc2)CC1	-18%
CCOC(=O)CN(C(=O)COc1nc(-c2ccccc2)cc(C)c1C#N)c1ccccc1	4%
CCC(C(=O)NCCCN1CCN(C)CC1)n1nc(C)c2sc3ccccc3c2c1=O (stereo unspecified)	-2%

Carrying on:
SMILES	VDR inh
CCOC(=O)C1CCN(C(=O)Cn2c(=O)oc3cc(S(=O)(=O)N4CCCC4)ccc32)CC1	-20%
CCOC(=O)N1CCN(CCC(=O)Nc2cc(C)ccc2C)CC1	14%&-17%
COc1ccc(Nc2oc(-c3cccs3)nc2C#N)cc1	5%
N/C(=N\c1nc2c(c(=O)[nH]1)CCC2)Nc1ccccc1C(F)(F)F	15%
Nc1nc(SCC(=O)NC2CCCCC2)[nH]c(=O)c1-c1ccccc1	5%
Cc1cccc(NC(=S)N2CCCC2)c1	1%
Oc1c(CN2CCOCC2)ccc(CN2CCOCC2)c1O	?
CC(C)CC(=O)c1c[nH]c(C(=O)NCc2ccc(F)cc2)c1	2%
O=C(CSc1nc2c([nH]c3ccccc32)c(=O)n1-c1ccc(F)cc1)NCc1ccco1	4%&-19%
COc1cc(C(C)=O)ccc1Oc1cnccn1	-3%
CN1CCN(c2cc(=O)n(-c3ccc(Cl)cc3)c(=O)[nH]2)CC1	-13%
O=C(/C=C/c1cn(CC(O)CN2CCc3ccccc32)c2ccccc12)c1ccc(Br)cc1 (stereo unspecified)	25%
Cn1cc(CNC(=O)C2CCC(=O)N(Cc3ccccc3F)C2)cn1 (stereo unspecified)	4%
O=C1CC(c2nc3ccccc3[nH]2)CN1c1cccc(Cl)c1 (stereo unspecified)	-2%
COc1ccc(-c2ccc(OC)c(C3C4C=CCC(C)C4C(=O)N3Cc3ccccc3)c2)cc1C (stereo unspecified)	-17%
C#CCOCCOCCOCCNc1nc(N2CCN(C(=O)[C@H]([C@@H](C)CC)n3cc(CCC(=O)O)nn3)CC2)nc(N2CCN(C(=O)[C@H](CCCCN)n3cc(CCCC)nn3)CC2)n1	-1%
Cc1nn(-c2ccccc2)c2[nH]c(=O)cc(C(F)F)c12	5%
O=C(Cc1ccc(Br)cc1)NNC(=O)Nc1ccc(Cl)cc1	6%
CC(=O)N(C)c1ccc(OCC(O)Cn2c(C)nc3ccccc32)cc1 (stereo unspecified)	-1%
CCOC(=O)c1cccc(NC(=O)CC2Oc3ccccc3NC2=O)c1 (stereo unspecified)	-24%
CCCc1ccc2oc(C(=O)N(Cc3ccncc3)CC3CCCO3)c(C)c2c1 (stereo unspecified)	-3%
O=C(Nc1cccc(NC(=O)c2cccc(F)c2)n1)c1cccc(F)c1	8%
O=C(NC1CCCc2ccccc21)C1CCN(S(=O)(=O)N2CCCCCC2)CC1 (stereo unspecified)	-9%
CCCCOc1ccccc1-c1ccccc1CN1[C@@H](C(C)C)COCCS1(=O)=O	17%
Fc1ccc(-c2nn3c(C4COc5ccccc5O4)nnc3s2)cc1 (stereo unspecified)	?
O=C(NCc1nc2ccccc2[nH]1)c1cccc(S(=O)(=O)N2CCOCC2)c1	4%
COc1ccc(NC(=O)CSc2nnc(CN3CCOCC3)n2-c2ccccc2)cc1Cl	18%
CC1(C)CC(=O)c2c(O)cc(O)cc2O1	12%
C#CCOCCOCCOCCNc1nc(N2CCN(C(=O)[C@H]([C@@H](C)CC)n3cc([C@@H](N)Cc4ccc(O)cc4)nn3)CC2)nc(N2CCN(C(=O)[C@H]([C@@H](C)CC)n3cc([C@@H](N)CC(C)C)nn3)CC2)n1	3%
Cc1c(Br)c([N+](=O)[O-])nn1CC(=O)Nc1sc2c(c1C(=O)OC(C)C)CCC(C)C2 (stereo unspecified)	-7%
Cc1cc(C)c2c3c(sc2n1)C(c1ccccc1)C(C#N)=C(N)O3 (stereo unspecified)	-8%
CCOc1ccc(-c2nn(-c3ccccc3)cc2/C=C2\SC(=S)N(Cc3ccco3)C2=O)cc1	-8%
CCN(CC(=O)NCc1cccs1)S(=O)(=O)c1ccc(F)cc1	-18%
O=C(CN1CCN(S(=O)(=O)N2CCOCC2)CC1)Nc1cc(Cl)cc(Cl)c1	-18%
COc1ccc(C(=O)NC2CC(=O)N(c3ccc4c(c3)OCCO4)C2)cc1 (stereo unspecified)	18%
C=C1CSc2nc3ccccc3c(=O)n21	2%
Cc1ccccc1NC(=S)Nc1cccc([N+](=O)[O-])c1	-3%
O=C(NN=CC=Cc1ccccc1)C(O)C(O)C(=O)NN=CC=Cc1ccccc1 (stereo unspecified)	12%
CCOc1cc(C(=O)OCC(=O)Nc2cc(C)on2)cc(OCC)c1OCC	-11%
CCCNC(=O)c1cccc(Cn2cc(Br)c([N+](=O)[O-])n2)c1	2%
S=C(NCCSCc1ccccc1Cl)Nc1ccccc1	-1%
FC(F)(F)C(F)(F)C(F)(F)C(F)(F)C(F)(F)F	7%
CC1CCCCC1NC(=O)Cn1c(=O)oc2cc(S(=O)(=O)N3CCCC3)ccc21 (stereo unspecified)	-8%
O=C1CCC(=O)N1CO	9%
COC(=O)Cc1ccc(NC(=S)NCCSc2ccc(C)cc2)cc1	-9%
COc1cccc(NC(=S)N2CCc3cc(OC)c(OC)cc3C2)c1	17%
Cc1cc(N/N=C2\CC(C)CC(C)(C)C2)nc2ccccc12 (stereo unspecified)	-10%
CCOC(=O)c1nnn(-c2nonc2-n2cccc2)c1CN1CCC(C)CC1	-9%
COC(=O)c1ccccc1NC(=O)c1cnn2c(C(F)F)cc(C3CC3)nc12	7%
Cc1cccc(CN2CCN(C(C)C(=O)NC(C)c3ccccc3)CC2)c1 (stereo unspecified)	36%[activator]
O=C(CS)Nc1ccc2ccccc2c1	79µM*
COc1ccc(OCc2nc(N)nc(Nc3ccc(C)cc3)n2)cc1	-21%
O=C(CSc1ccnc(=O)[nH]1)NCc1ccc(F)cc1	-2%
CCOC(=O)c1[nH]c(=O)[nH]c1COC(=O)c1cc2ccccc2o1	-24%

Some values from the list:
Value of Cc1cccc(C)c1NC(=S)N(CCCN1CCN(C)CC1)Cc1cccs1 in VDR inh: -8%
Value of CCc1nc(SCC(=O)Nc2cc(C)on2)c2c(C)c(C)sc2n1 in VDR inh: 8%
